Screens: PubChem, several laboratories
BJeLR viability: MLPCN primary cell-based screen for lethality selective to Ras in HRASV12 cells | BJeLR (HRASV12) viability, CellTiter-Glo ATP luminescence, 48 h; reference of the scale not given here | inhibition, % (concentration not given with the values) | 0.17% of 300,000 active | AID 1554, 2009;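 active = replicate mean above 50%; inconclusive = above 50% but judged a plate artefact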;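 also: 50 nL library stock added to about 25 µL; numbers are from one replicate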
Bead autofluor: compound fluorescence in toxin protease inhibitor counterscreen; compound autofluorescence counterscreen, microsphere flow cytometry; active compounds read high; fluorescence intensity (concentration not given with the values); 3.1% of 360,000 active;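 active = at least 3 SD above the mean of all compounds, about 16000 in these data; inconclusive = too few beads counted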;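 also: 100 nL of 1 mM stock went into each well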
ugtP null kill: growth inhibition of ugtP-null S. aureus, primary screen, RN4220 ugtP deletion, OD600 | 0.54% of 330,000 active | AID 1259309, 2017 | 16 h; some inactives read as strong as hits | growth inhibition, % (no concentration beside the values);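 active = z-score under -3 and OD600 up to 0.15 on both plates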;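 also: plate controls were untreated wells for no effect and antibiotic for full effect; wells of about 80 µL received 100 nL stock; the first replicate is given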
PrP UTR inh: inhibition of PrP 5' UTR reporter expression; cell-based PrP 5' UTR mRNA reporter, plate reader; inhibition, % (no concentration beside the values); 0.35% of 340,000 active; AID 488862, 2010;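 active = every replicate at 50% or more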;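 also: 0 = median of the neutral control wells; tested in H4 reporter cells; numbers are from one replicate; inactives centre near -14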
Mtb hypoxia rep: PubChem AID 1159583. M. tuberculosis hypoxia-regulated fluorescent reporter, fluorescence. fluorescence inhibition, % (test concentration not listed). 0.1% of 300,000 active;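 active = 35 to 45% if threefold the growth effect, above 45% if 1.5-fold the growth effect; inactive = the rest, general growth blockers included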;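 also: wells of about 50 µL received 100 nL stock; 0% = vehicle wells and 100% = reference inhibitor wells; whole bacteria with a GFP reporter of the hypoxia response; strong numbers were not always called active; many hits fall short of the cut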
RN4220 kill: growth inhibition of S. aureus RN4220, primary screen, OD600. AID 1259311, 2017. 16 h. inhibition, % (concentration not given with the values). 0.33% of 330,000 active;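 active = z-score of -3 or lower and OD600 up to 0.18 on both plates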;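 also: plate controls were untreated cells for no effect and reference antibiotic for full effect; stock transfer was 100 nL into about 80 µL; one replicate is shown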
Mtb hypoxia rep growth: recorded beside Mtb hypoxia rep, whose call it bears; growth inhibition, %; measured here: M. tuberculosis growth (absorbance);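 0% = vehicle and 100% = reference antibiotic; read after six days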
* = called active by the depositor; ? = inconclusive; nt = not tested or not shown. Not a hit list; 4% or so of the library scored in one or more.

No. | Structure | BJeLR viability | Bead autofluor | ugtP null kill | PrP UTR inh | Mtb hypoxia rep | Mtb hypoxia rep growth | RN4220 kill
1 | O=C(NCC(=O)N(CCc1ccccc1)C(C(=O)NC1CCCC1)c1cccnc1)c1ccco1 (stereo unspecified) | nt | 4189 | 2 | -3 | nt | nt | -2.3
2 | Cc1cc(C(=O)CSc2ccc(F)cc2)cc(C)c1O | -4 | 4033 | 10 | -15 | -5 | 8 | 6.5
3 | COc1ccc(CCN(C)Cc2c(F)cccc2F)cc1OC | -4 | 23473* | 10 | -2 | 2 | 0 | 3.7
4 | O=C(C[n+]1ccc(/C=N/O)cc1)N(Cc1ccccc1)Cc1ccccc1 | 2 | 2884 | nt | -4 | nt | nt | nt
5 | O=C(Nc1cccc(N2C(=O)C3C4C=CC(C4)C3C2=O)c1)c1cccs1 (stereo unspecified) | -10 | 4479 | 3 | -9 | 11 | 11 | 10
6 | CC1CCCN(S(=O)(=O)CCNC(=O)c2ccc3c(c2)OCO3)C1 (stereo unspecified) | -5 | 6674 | 8 | -1 | 15 | 5 | 5.0
7 | Cc1csc(SCC(=O)c2c(N)n(C)c(=O)n(C)c2=O)n1 | 0 | 5885 | 6 | -38 | nt | nt | 0.4
8 | Clc1ccc(NC2=NCCCS2)cc1Cl | -8 | 5776 | 8 | -19 | 0 | 0 | 5.4
9 | O=S(=O)(NC12CC3CC(CC(C3)C1)C2)c1ccc(F)cc1 | 17 | 15722 | -15 | -14 | -16 | 3 | 0.2
10 | COc1cc(-c2ccc3oc(-c4ccsc4)cc(=O)c3c2)cc(OC)c1OC | nt | 4008 | 17 | -6 | 16 | 14 | 28
11 | CN(Cc1ccccc1)c1ccc(N2C(=O)CCCC2=O)cc1[N+](=O)[O-] | -8 | 2227 | 9 | -18 | 13 | 8 | 2.7
12 | CN(Cc1cccc(F)c1)C(=O)CNS(=O)(=O)c1ccc2ccccc2c1 | -8 | 3712 | 7 | -13 | -5 | 4 | 3.5
13 | C[C@H]1CC[C@]2(O[C@@H](CCO)C[C@@H](O)[C@@H]2O)O1 | 0 | 3079 | nt | -25 | nt | nt | nt
14 | CC(O)CNc1ccc([N+](=O)[O-])c2cccnc12 (stereo unspecified) | -8 | 2237 | 1 | -38 | 3 | 5 | -4.3
15 | COc1ccccc1OCCn1c(=O)oc2ccc(C)cc21 | 10 | 3243 | 7 | -15 | 6 | -2 | 11
16 | CCCCNC(=S)N(C)N=Cc1c(F)c(F)c(F)c(F)c1F | nt | nt | 5 | nt | 9 | 0 | 5.4
17 | CC(C)NC(=O)C(OC(=O)c1ccccc1)C(OC(=O)c1ccccc1)C(=O)O (stereo unspecified) | -7 | 9049 | 2 | -28 | -74 | -15 | -0.4
18 | CC(=O)Nc1ccc(S(=O)(=O)N(CC(=O)NC2CC2)Cc2ccccc2)cc1 | nt | 3681 | 4 | -26 | 14 | 4 | 6.0
19 | COc1ccc(-c2nc(N)ncc2-c2csc(C)n2)c(O)c1OC | -5 | 2468 | 1 | -11 | -6 | 8 | -1.1
20 | COc1ccc(NC(=O)c2ccc(NC(=O)C(C)C)cc2)c([N+](=O)[O-])c1 | 9 | 2444 | -3 | -5 | 2 | 3 | 8.6
21 | Cc1noc(C)c1C(=O)NCCc1ccc(S(N)(=O)=O)cc1 | -8 | 3996 | 8 | 0 | 8 | -4 | 1.9
22 | CN(CCn1ccnc1)Cc1cn(Cc2ccccc2)nc1-c1ccc2c(c1)OCO2 | 4 | 4538 | 6 | -8 | -14 | 6 | 2.1
23 | CC(C)NC(=O)C(c1ccc(F)cc1)N(C(=O)CCC(=O)Nc1ccccn1)C1CCCC1 (stereo unspecified) | 10 | 3645 | 14 | -25 | -7 | 1 | 2.2
24 | CCOCCn1c(-c2ccccc2)nc2ccccc21 | 1 | 4362 | 3 | nt | -1 | 11 | 1.7
25 | CCCCCCNCc1ccc(Br)cc1 | 6 | 7959 | 6 | -24 | 16 | 11 | 3.3
26 | COC(=O)c1sccc1NC(=O)c1ccc(C#N)cc1 | -6 | 2766 | -7 | -3 | -3 | 0 | -1.5
27 | O=C(NC1CCSc2ccccc21)c1ccccc1Cl (stereo unspecified) | -13 | 5976 | 8 | -21 | 12 | 13 | 29
28 | CCc1ccc(C)[n+](CC(=O)c2cccs2)c1 | 0 | 3218 | 4 | 5 | -10 | -11 | -1.3
29 | O=C(COc1ccc(Cl)cc1Cl)Nc1ccccn1 | nt | 10103 | 11 | nt | 5 | 4 | 7.8
30 | O=C(Nc1nnc(CCN2CCCCC2)s1)c1ccccc1 | -1 | 4401 | -3 | -19 | -4 | -19 | -0.5
31 | O=C1CCCC(O)=C1C=Nc1ccc(O)cc1 | 3 | 3340 | -4 | -25 | 21 | -25 | -9.9
32 | Cc1cc(C)cc(COc2ccc3c(C)c(CC(=O)O)c(=O)oc3c2C)c1 | -16 | 2898 | 8 | -9 | -2 | -8 | 27
33 | CCC1CCCCN1S(=O)(=O)c1ccc(NC(=O)C2CCCO2)cc1 (stereo unspecified) | -1 | 5844 | 3 | -18 | 0 | 0 | 8.0
34 | C=CCn1c(SCc2nc3sc(C(=O)O)c(C)c3c(=O)[nH]2)nnc1-c1ccccc1 | -2 | 1970 | nt | -6 | nt | nt | nt
35 | CC1(CC(=O)N/N=C/c2ccc(-c3ccc(C(=O)O)cc3)o2)OCCO1 | 1 | 10281 | nt | -9 | nt | nt | nt
36 | CCCOc1ccc(/C=C2\SC(N)=NC2=O)cc1OC | -2 | 3540 | 6 | -12 | 21 | 15 | 6.3
37 | COc1ccc(Cl)c2sc(N(CCN(C)C)C(=O)CCS(=O)(=O)c3ccc(C)cc3)nc12 | 3 | 6430 | 1 | -11 | 13 | -3 | 1.4
38 | Cc1ccc(NC(=O)COC(=O)c2ccc([N+](=O)[O-])s2)c(C)c1 | 0 | 2474 | 3 | -7 | -3 | -2 | 5.6
39 | O=C1c2ccccc2NC2CCCCCN12 (stereo unspecified) | -17 | 4528 | -1 | -11 | nt | nt | 0.3
40 | O=C(O)C1C2C=CC(O2)C1C(=O)Nc1ccc(S(=O)(=O)Nc2ccccc2)cc1 (stereo unspecified) | nt | 21995* | 5 | -19 | 6 | 5 | 2.2
41 | CCN(CC)CCNC(=O)c1ccc(NC(=O)c2cc(S(=O)(=O)N3CCCCC3)ccc2N2CCOCC2)cc1 | nt | 5171 | 2 | -7 | 1 | -14 | 5.8
42 | O=C(CCC(=O)N1CC2C[C@@H](C1)Cn1c2cccc1=O)NCCc1ccccc1F | -9 | 3983 | 0 | -6 | nt | nt | 0.7
43 | CCOc1ccc(NC(=O)NCc2cccn2C)cc1 | -4 | 2796 | -1 | -33 | 3 | 0 | 0.7
44 | O=C(CCCCl)NC1=NN(c2ccccc2)C(=O)C1 | nt | 2440 | -2 | -9 | 5 | 7 | 3.4
45 | O=C(NCCCN1CCCC1=O)Nc1ccc(Cl)cc1Cl | -2 | 6472 | 3 | -3 | 13 | -2 | 2.5
46 | CC1CSc2ccccc2NC1=S (stereo unspecified) | 2 | 16476* | 1 | 1 | 6 | 6 | 3.0
47 | C=CCn1c(=O)c2ccccc2n2nnc(C(=O)OCC)c12 | -11 | nt | -3 | nt | -5 | 0 | 0.4
48 | CCN1CCN(c2ccc(N=Cc3ccc(O)cc3O)cc2)CC1 | 14 | 4485 | 6 | -24 | 0 | -10 | 2.9
49 | CC(=NNC(=O)c1c(C)nc2ccccn12)c1ccccc1F | nt | nt | 6 | nt | -13 | 1 | -2.0
50 | CCN(CC)CCN1C(=O)C(O)=C(C(=O)c2ccco2)C1c1ccccn1 (stereo unspecified) | -6 | 2944 | 7 | -22 | nt | nt | 1.1
51 | COc1cc2c(cc1OC)CN(C(=O)C1(c3ccccc3)CC1)CC2 | 2 | 19639* | -12 | -30 | 10 | 11 | 11
52 | COCCNC(=O)C(c1ccc(C)cc1)N(Cc1ccco1)C(=O)CCC(=O)Nc1ccccn1 (stereo unspecified) | -9 | 3613 | -1 | -15 | 3 | 9 | -1.4
53 | Cc1ccnc(SCCn2c(N3CCN(C)CC3)nc3c2c(=O)n(C)c(=O)n3C)n1 | 3 | 5955 | 11 | -13 | 9 | 3 | 3.3
54 | COCCn1c(C)cc(C(=O)COC(=O)/C=C/c2ccc(OC)cc2OC)c1C | nt | 3815 | 72 | -22 | 23 | 17 | 1.3
55 | CCc1ccc2[nH]c3nc(C)cc(C)c3c(=O)c2c1 | -8 | 2342 | 0 | -40 | 1 | 12 | 2.5
56 | O=C(Nc1ccc(F)cc1)c1ccc(CN2CCc3ccccc3C2)cc1 | -1 | 3248 | 4 | -19 | 7 | 0 | 1.7
57 | Cc1ccc(S(=O)(=O)NCc2cc(=O)n(C)c(=O)n2C)cc1C | 1 | 5650 | 2 | -7 | 1 | 5 | 3.4
58 | COc1ccc(CN(C)CC(=O)NC(C)c2ccccc2)c(OC)c1 (stereo unspecified) | -9 | 4371 | 1 | -4 | -2 | 15 | -0.8
59 | COC(=O)c1cc(C#N)c(Oc2ccccc2)nc1C | -2 | 2783 | 8 | -22 | nt | nt | 0.7
60 | CCCOc1ccc(N2C(=O)CC(NCCNc3ccc(S(=O)(=O)CC)cc3)C2=O)cc1 (stereo unspecified) | 2 | 4747 | 5 | -12 | nt | nt | 3.3

Reformatted with each value named: part of the list above.
[45] O=C(NCCCN1CCCC1=O)Nc1ccc(Cl)cc1Cl
  BJeLR viability: -2
  Bead autofluor: 6472
  ugtP null kill: 3
  PrP UTR inh: -3
  Mtb hypoxia rep: 13
  Mtb hypoxia rep growth: -2
  RN4220 kill: 2.5

[59] COC(=O)c1cc(C#N)c(Oc2ccccc2)nc1C
  BJeLR viability: -2
  Bead autofluor: 2783
  ugtP null kill: 8
  PrP UTR inh: -22
  Mtb hypoxia rep: nt
  Mtb hypoxia rep growth: nt
  RN4220 kill: 0.7

[56] O=C(Nc1ccc(F)cc1)c1ccc(CN2CCc3ccccc3C2)cc1
  BJeLR viability: -1
  Bead autofluor: 3248
  ugtP null kill: 4
  PrP UTR inh: -19
  Mtb hypoxia rep: 7
  Mtb hypoxia rep growth: 0
  RN4220 kill: 1.7

Next compounds:
No. | Structure | BJeLR viability | Bead autofluor | ugtP null kill | PrP UTR inh | Mtb hypoxia rep | Mtb hypoxia rep growth | RN4220 kill
61 | O=C(NCc1cccs1)C1CC(=O)N(c2ccccc2)C1 (stereo unspecified) | -2 | 4165 | 4 | -13 | 4 | 11 | 0.0
62 | O=C(CSc1cccc[n+]1[O-])N1CCCc2ccccc21 | -4 | 4357 | 6 | -32 | 2 | 12 | -0.3
63 | CC(CC(=O)Nc1cc(Cl)ccc1Cl)=NNC(N)=S | nt | nt | 9 | nt | 6 | 8 | 3.7
64 | O=C(CN1CCCCC1)Nc1ccc(F)c(Cl)c1 | 4 | 4743 | 3 | -8 | nt | nt | -1.4
65 | COc1ccc(CNC(=O)CN(c2cccc(OC)c2)S(C)(=O)=O)cc1 | 0 | 13313 | -1 | -7 | -4 | 1 | 2.2
66 | COc1ccccc1NC(=O)c1cccc(S(=O)(=O)N2CCOCC2)c1 | 6 | 4992 | -3 | -18 | nt | nt | 1.4
67 | CC(=O)Nc1ccc(S(=O)(=O)Nc2cccc(-c3nc4cc(C)ccc4o3)c2)cc1 | -1 | 4909 | 4 | -23 | 2 | 4 | 1.0
68 | COC(=O)c1ccccc1NC(=O)c1ccc(F)cc1 | 13 | 3404 | 6 | -8 | 18 | 5 | 6.0
69 | Cc1ccc(CNC(=O)C(=O)NCC2OCCCN2S(=O)(=O)c2ccc(F)cc2)cc1 (stereo unspecified) | -6 | ? | 16 | -8 | 4 | -4 | 6.5
70 | CC1CC(C)CN(CCCNC(=O)CN2C(=O)c3cccnc3Oc3ccc(Cl)cc32)C1 (stereo unspecified) | -3 | 6146 | -8 | -5 | -1 | 6 | -1.3
71 | CSc1ccccc1OCc1cc(C(=O)NCCCn2nc(C)cc2C)no1 | 9 | 5821 | 6 | -5 | 10 | -6 | 2.6
72 | COc1ccc(-c2nc(C#N)c(NCCN(C)C)o2)cc1 | -4 | 5805 | 5 | -29 | 7 | 13 | 4.5
73 | Cc1cc(C(=O)COC(=O)c2ccc(NC(=O)CC#N)cc2)c(C)n1-c1ccc(OC(F)F)cc1 | nt | 2995 | -1 | -10 | -2 | 3 | 1.9
74 | CCOC(=O)C1C(=O)C=C(c2ccc(C)cc2)CC1c1ccccc1 (stereo unspecified) | -7 | 4728 | 1 | 7 | -6 | 6 | -0.1
75 | O=S(=O)(Nc1nc2ccccc2nc1NCc1ccco1)c1ccc(F)cc1 | -32 | 4503 | -11 | -18 | -5 | -18 | 8.6
